GIRK2 activ – opens human GIRK2 potassium channels. P48051. HEK293-GIRK2 thallium flux, Thallos fluorescence. calls only for hits at 25 µM. actives 0.05% (n = 63,000);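 active = among the strongest 0.2% of first-round signals and kept after retests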;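 note: first round at about 10 µM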
Target sequence (P48051 whole entry, looked up): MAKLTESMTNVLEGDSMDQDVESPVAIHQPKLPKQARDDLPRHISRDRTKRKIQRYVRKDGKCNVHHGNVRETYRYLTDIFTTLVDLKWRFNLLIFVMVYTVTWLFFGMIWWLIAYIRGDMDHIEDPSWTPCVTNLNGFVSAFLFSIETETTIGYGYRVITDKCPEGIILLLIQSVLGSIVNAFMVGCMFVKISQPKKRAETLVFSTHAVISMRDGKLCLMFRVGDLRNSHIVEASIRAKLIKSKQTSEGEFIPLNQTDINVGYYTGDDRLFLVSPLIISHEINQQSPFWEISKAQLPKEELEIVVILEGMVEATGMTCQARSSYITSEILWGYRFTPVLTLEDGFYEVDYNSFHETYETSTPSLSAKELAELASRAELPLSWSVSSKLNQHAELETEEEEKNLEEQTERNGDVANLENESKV
Calls only; i = inactive. Not all compounds are listed; the hit share may differ from the screen's.

SMILES | GIRK2 activ
O=C(c1ccc(Cl)s1)N(Cc1ccsc1)CC(F)(F)F | i
COc1cccc(C(=O)NCCN2CCn3cc(OC)c(=O)cc3C2=O)c1 | i
CC(C)(C)NC(=O)Cn1nc(-c2ccccc2)c2sc(N3CCCC3)nc2c1=O | i
O=C(NCC1CCN(c2ccccn2)CC1)c1ccco1 | i
CC(C)c1nccn1CC1CCN(C(=O)CN2C(=O)CCC2=O)CC1 | i
CSCC(C)(O)CNC(=O)c1snnc1C (centres undefined) | i
Cc1ccc(Oc2nccn3c(=O)n(CC(=O)NC(C)CCc4ccccc4)nc23)cc1 (centres undefined) | i
O=C(NCc1ccccc1Cl)c1ccc2c(=O)nc3c(-c4ccccc4F)n[nH]n3c2c1 | i
O=C(NCCCn1ncccc1=O)c1ccc(-n2cccc2)cc1 | i
Cc1ccccc1N1C(=O)CC(N2CCN(C(=O)OC(C)(C)C)CC2)C1=O (centres undefined) | i
COc1ccc(-c2ccc(N3CCC(C(=O)Nc4ccccc4[N+](=O)[O-])CC3)nn2)cc1 | i
COc1ccccc1/C=C1\SC(=S)N(c2ccc(C)cc2)C1=O | i
Cn1c(=O)n(CCCO)c(=O)c2c1nc1n2CCCN1CCc1ccccc1 | i
O=C(c1cn(-c2cc(N3CCCCC3)ncn2)cn1)N1CCN(c2ccccc2F)CC1 | i
COc1cccc(CSc2nc(C)c(CC(=O)NCc3ccccc3Cl)c(=O)[nH]2)c1 | i
COc1ccc(N2C(=O)C3N=NN(CC(=O)Nc4ccc(Oc5ccccc5)cc4)C3C2=O)cc1 (centres undefined) | i
O=C1CC(c2n[nH]c(=S)o2)CN1c1ccccc1 (centres undefined) | i
Cn1cc(OCc2ccccc2)c(=O)cc1C(=O)NCc1ccc2c(c1)OCO2 | i
CCOC(=O)N1CCCC1CS(=O)(=O)c1ccccc1 (centres undefined) | i
COC(=O)N1CCc2ccccc2C1C(=O)Nc1cccc2ncccc12 (centres undefined) | i
O=C(c1ccoc1)N1CCC(CNS(=O)(=O)c2ccc(Cl)s2)CC1 | i
CC(CN1c2ccccc2Sc2ccccc21)N(C)C (centres undefined) | i
O=C(O)C1CCC(C(=O)O)C1 (centres undefined) | i
Cn1cnnc1SCc1cc(=O)c(OCC(=O)Nc2ccc(C(F)(F)F)cc2)co1 | i
CCOC(=O)Cn1c(=O)c2c(nc3n(-c4ccc(Oc5ccccc5)cc4)c(C)cn23)n(C)c1=O | i
COCCCn1cnc2c(-c3ccccc3)cn(CC(=O)Nc3cccc(Cl)c3)c2c1=O | i
O=C(Cn1cncc(-c2nc(-c3cccs3)cs2)c1=O)Nc1ccc(F)cc1F | i
C/C=C1\[C@H](O[C@@H]2O[C@H](CO)[C@@H](O)[C@H](O)[C@H]2O)OC=C2C(=O)OCCc3ccc(O)c(c3)Oc3ccc(cc3)CCOC(=O)C[C@H]21 | i
O=C1CCc2cc(S(=O)(=O)N3CCCCC3)cc3c2N1CCC3 | i
CCCCCCCCCCCCCCCCOC[C@H](COP(=O)([O-])OCC[N+](C)(C)C)SC(=O)CCCCCC | i
CC(C)CCNC(=O)Cn1cccc(S(=O)(=O)N2CCCCCC2)c1=O | i
CCOC(=O)c1cccc(NC(=O)c2sccc2S(=O)(=O)N(C)c2cccc(C)c2)c1 | i
Cc1cc(C)c2c(CN3CCC4(CC3)OCCO4)cc(=O)oc2c1 | i
O=C(c1ccc(CNS(=O)(=O)c2cccc(C(F)(F)F)c2)cc1)N1CCCCC1 | i
COc1ccc(CNC(=O)C(=O)Nc2cc3c4c(c2)CCC(=O)N4CCC3)cc1 | i
O=C(CCCCCn1c(=S)[nH]c2cc3c(cc2c1=O)OCO3)NCCc1ccccc1Cl | i
Cc1noc(Cn2c(=O)c3ccccc3n(CC(=O)Nc3ccccc3C(F)(F)F)c2=O)n1 | i
COc1ccccc1-c1csc(-c2nnn(-c3ccc(Br)cc3F)c2N)n1 | i
CCOc1ccc(-n2nnc(C(=O)NCc3ccco3)c2COC)cc1 | i
O=C1CCSCC(C(=O)Nc2ccc(S(=O)(=O)Nc3nccs3)cc2)N1 (centres undefined) | i
CCOc1ccccc1NC(=O)C(=O)NCCC(O)c1cccc2ccccc12 (centres undefined) | i
Cc1cccc(CSc2ncc(S(=O)(=O)c3ccccc3)c(N)n2)c1 | i
Cc1nc(NC(=O)C2CSCCC(=O)N2)sc1C(=O)N(C)C (centres undefined) | i
COc1ccc(S(=O)(=O)N=C2C=C(Nc3cccc(C)c3)C(=O)c3ccccc32)cc1 | i
CCN1CCCC1CNC(=O)c1cnn2c1OCCC2 (centres undefined) | i
COc1ccccc1N1CCN(CC(=O)Nc2cccc(Cl)c2Cl)C1=O | i
Cc1cn([C@H]2C[C@H](N=[N+]=[N-])[C@@H](CO)O2)c(=O)[nH]c1=O | i
CSc1cccc(-n2ccc(=O)c(-c3nc(-c4cccc(F)c4)no3)n2)c1 | i
Cc1cc(CNC(=O)C(=O)Nc2ccc(C(C)C)cc2)c(C)o1 | i
CC(=O)O[C@@H]1[C@@H](OC(=O)/C=C/c2ccccc2)[C@@H](OC(C)=O)[C@H](O[C@H]2[C@@H]3C=CO[C@@H](O[C@@H]4O[C@H](CO)[C@@H](O)[C@H](O)[C@H]4O)[C@@H]3[C@@]3(CO)O[C@@H]23)O[C@H]1C | i
CC(C)n1c(=O)[nH]c2c(C(=O)N3CCN(c4ccc(F)cc4)CC3)snc2c1=O | i
Cc1ccc(NC(=O)CCCCCC(=O)Nc2ccccc2N)cc1 | i
CC1CCN(c2nc3c(c(=O)[nH]c(=O)n3C)n2CC(=O)c2ccccc2)CC1 | i
COc1ccc(NC(=O)CSc2nnc(-c3cccnc3)n2-c2ccccc2)c(OC)c1 | i
CC1CCN(S(=O)(=O)N2CCN(S(=O)(=O)c3ccccc3)CC2)CC1 | i
COc1cc(OC)c(NC(=O)COc2cc(C)nc(N3CCCC3)n2)cc1Cl | i
CCOc1ccc(NC(=O)Cn2nc(C3CCCN(S(C)(=O)=O)C3)n(C)c2=O)cc1 (centres undefined) | i
Cc1nc2ccccn2c1C(=O)N1CCN(Cc2ccsc2)CC1 | i
Cc1nc(-c2ccc(N3CCN(S(=O)(=O)CCN4C(=O)CCCC4=O)CC3)nc2)no1 | i
O=C(Nc1ccc2c(c1)OCO2)c1cc2ccccc2o/c1=N/NS(=O)(=O)c1ccc(Cl)cc1 | i

Carrying on:
SMILES | GIRK2 activ
Fc1ccc(-n2ncc3c(N4CCCCC4)nc(NN4CCOCC4)nc32)cc1 | i
COc1ccc(C2c3c(-c4ccccc4O)n[nH]c3C(=O)N2C)cc1OC (centres undefined) | i
O=c1cc[nH]c2c(Cl)cccc12 | i
Cc1ccc2c(=O)c(C(=O)N3CCCC3)cn(CC(=O)Nc3ccc(F)cc3)c2n1 | i
Cc1ccc2c(=O)c(C(=O)N3CCCCC3)cn(CC(=O)Nc3ccc4c(c3)OCO4)c2n1 | i
NC(=O)CSc1nnc(N2CCN(C(=O)c3ccccc3C(F)(F)F)CC2)s1 | i
CCc1c(-c2ccc(F)cc2)nn2c1NC(=O)C2CC(=O)Nc1cccc(C(C)=O)c1 (centres undefined) | i
CCc1nc(-c2ccc(N3CCN(S(=O)(=O)N(C)C)CC3)nc2)no1 | i
O=C(CCn1cnc2ccccc2c1=O)N1CC(c2nc(-c3ccco3)no2)C1 | i
CCCCN1CC(c2nc3ccccc3n2Cc2ccc(F)cc2)CC1=O (centres undefined) | i
CN(C)c1cccc(C(=O)N2CCN(S(=O)(=O)C3CC3)CC2)c1 | i
Cc1nc(-c2ccccc2Cl)sc1CNC(=O)CSc1nnnn1C | i
CC(C)(C)CC(C)(C)NCC(O)COC(C)(C)C (centres undefined) | i
COc1ccccc1S(=O)(=O)NCC1(c2ccc(F)cc2)CC1 | i
CC(C)c1nc(-c2ccc(N3CCN(C(=O)CSc4ccc(F)cc4)CC3)nc2)no1 | i
COc1ccc(C(=O)CN2C(=O)c3ccccc3OC(C)C2=O)cc1F (centres undefined) | i
Clc1ccccc1CNc1nc(N2CCOCC2)c2n[nH]nc2n1 | i
O=C1c2oc3ccccc3c(=O)c2C(c2ccccc2)N1Cc1cccnc1 (centres undefined) | i
COc1cccc2sc(NC(=O)CCCS(=O)(=O)Cc3ccccc3)nc12 | i
O=C(Cn1nc2nc(Nc3ccc(F)cc3)ccn2c1=O)Nc1ccc(F)cc1 | i
CCOC(=O)Cn1c(=O)c2c(nc3n2CC(C)CN3c2cc(C)ccc2OC)n(C)c1=O (centres undefined) | i
COc1ccc(CCC(=O)N2CCC(CSC3=NCCS3)CC2)cc1 | i
CS(=O)(=O)c1ccc(/C=C2\C=C(CC(=O)NCc3ccccc3)c3cc(F)ccc32)cc1 | i
Cc1nc2ccc(NC(=O)c3ccc(Cl)c([N+](=O)[O-])c3)cc2c(=O)n1-c1ccccc1 | i
COc1ccc(CCNC(=O)CCn2cnc3c([nH]c4ccccc43)c2=O)cc1OC | i
Cc1cc(S(=O)(=O)NCc2ccc(C(O)c3cccs3)s2)c(Cl)cc1Cl (centres undefined) | i
Cc1ccc(-n2c(N3CCCC(C(=O)NCC(C)C)C3)nc3ccsc3c2=O)cc1 (centres undefined) | i
O=C(CCCSc1ccccc1)N1CCN(c2ccccc2)CC1 | i
CCOc1cccc2cc(-c3cc(=O)oc4cc(O)ccc34)c(=O)oc12 | i
COc1ccccc1N1CCN(c2nnc(SCC(=O)N3CCCC3)s2)CC1 | i

An excerpt of these results, tab-delimited:
SMILES	GIRK2 activ
COc1ccccc1/C=C1\SC(=S)N(c2ccc(C)cc2)C1=O	i
Cn1c(=O)n(CCCO)c(=O)c2c1nc1n2CCCN1CCc1ccccc1	i

(cont.)
SMILES | GIRK2 activ
COC1=CC(=O)C[C@@H](C)[C@]12Oc1c(Cl)c(OC)cc(OC)c1C2=O | i
Cc1cccc(N2CCN(C(=O)c3nnn(-c4ccccc4F)c3-c3ccccn3)CC2)c1 | i
CCOc1ccc(NC(=O)c2c(O)c3sccc3n(CC)c2=O)cc1 | i
Cc1ccc(C)n1CCCC(=O)NCc1ccc(S(N)(=O)=O)cc1 | i
Cc1ccccc1OCC(=O)N1CCC(Cn2ccnc2C)CC1 | i
CC(=O)CC1(O)C(=O)N(Cc2ccc(OC(C)C)cc2)c2ccc(Cl)cc21 (centres undefined) | i
O=C(NCc1ccsc1)Nc1ccccc1Cl | i
Cn1c(=O)c2c(ncn2CC(=O)Nc2ccc(F)cc2)n(C)c1=O | i
COC(=O)c1sccc1S(=O)(=O)Nc1ccc(OCc2ccccc2)cc1 | i
O=S(=O)(c1cccn2c(SCc3ccccc3F)nnc12)N1CCCC1 | i
O=C1CC(c2nc(C3CC3)no2)CN1c1cccc(Cl)c1 (centres undefined) | i
Cc1c(C)n2c3c(=O)n(C/C=C/c4ccccc4)c(=O)n(C)c3nc2n1-c1ccccc1O | i
COc1ccc(SCC(=O)N2CC(Oc3nc4ccccc4s3)C2)cc1 | i
CC1=NN(C(C)C)c2nc3c(c(=O)n(Cc4ccc(C)cc4)c(=O)n3C)n2C1 | i
C=CCN1C(=O)c2oc3ccccc3c(=O)c2C1c1ccc(C(=O)OC)cc1 (centres undefined) | i

Three structures already listed, sorted by number of heavy atoms, highest first:
SMILES | GIRK2 activ
C=CCN1C(=O)c2oc3ccccc3c(=O)c2C1c1ccc(C(=O)OC)cc1 (centres undefined) | i
COc1ccc(SCC(=O)N2CC(Oc3nc4ccccc4s3)C2)cc1 | i
Cc1ccccc1OCC(=O)N1CCC(Cn2ccnc2C)CC1 | i

In the list so far, five have a furan ring, fused or not.
SMILES | GIRK2 activ
O=C(NCC1CCN(c2ccccn2)CC1)c1ccco1 | i
O=C(c1ccoc1)N1CCC(CNS(=O)(=O)c2ccc(Cl)s2)CC1 | i
CCOc1ccc(-n2nnc(C(=O)NCc3ccco3)c2COC)cc1 | i
Cc1cc(CNC(=O)C(=O)Nc2ccc(C(C)C)cc2)c(C)o1 | i
O=C(CCn1cnc2ccccc2c1=O)N1CC(c2nc(-c3ccco3)no2)C1 | i

The results go on:
SMILES | GIRK2 activ
COc1ccccc1CNC(=O)Cc1sc(C)nc1C | i
Cc1csc(CN2CCN(C(=O)c3cc4ccccc4o3)CC2)n1 | i
COc1ccc(N2CCN(c3nc4c(c(=O)[nH]c(=O)n4C)n3CCCOc3ccccc3)CC2)cc1 | i
CCn1c(SCC(=O)Nc2ccc(C)c(F)c2)nc2nc(N3CCC(C)CC3)sc2c1=O | i
CCc1ccc(N2CCCn3c2nc2c3c(=O)n(CC)c(=O)n2C)cc1 | i
O=[N+]([O-])c1cccc(-c2nc3nc4ccccc4nc3n2Cc2ccco2)c1 | i
CSc1ccccc1CN1CCC(CNC(=O)C2(c3ccc(F)cc3)CC2)CC1 | i
COc1ccc(NC(=O)Cn2nc3c(Oc4cc(C)cc(C)c4)nc4ccccc4n3c2=O)c(OC)c1 | i
O=C(O)c1ccc(CN=C2NS(=O)(=O)c3ccccc32)cc1 | i
COc1ccc2c(c1)c(CC(=O)NCCc1cnc[nH]1)c(C)n2C(=O)c1ccc(Cl)cc1 | i
COC(=O)C1=CO[C@@H](O[C@@H]2O[C@H](CO)[C@@H](O)[C@H](O)[C@H]2O)[C@H]([C@H](C)OC(C)=O)[C@@H]1CC(=O)O | i
CCOc1ccc(N2CCCn3c2nc2c3c(=O)n(CC(C)=O)c(=O)n2C)cc1 | i
COc1ccc(S(=O)(=O)NCCCn2ncccc2=O)cc1C | i
CCOc1ccc(C2Oc3ccccc3C3=C2C(c2cccnc2)n2nnnc2N3)cc1 (centres undefined) | i
O=C(c1ccc(Br)o1)N1CCN(c2ccc(-c3noc(C4CC4)n3)cn2)CC1 | i
O=C(CN1CCN(CC(=O)c2ccco2)CC1)Nc1ccc2c(c1)OCCO2 | i

Reprinted from the results shown for reference:
SMILES | GIRK2 activ
COc1ccc(S(=O)(=O)NCCCn2ncccc2=O)cc1C | i
CCOc1ccc(C2Oc3ccccc3C3=C2C(c2cccnc2)n2nnnc2N3)cc1 (centres undefined) | i
O=C(c1ccc(Br)o1)N1CCN(c2ccc(-c3noc(C4CC4)n3)cn2)CC1 | i
O=C(CN1CCN(CC(=O)c2ccco2)CC1)Nc1ccc2c(c1)OCCO2 | i

Screens as filed in PubChem BioAssay.
